# PABP FP inh – blocks human PABP binding to poly(A) RNA; P11940; fluorescence polarization; inhibition, % at 35 µM; 1% of 290,000 active;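 active = 50% or more with normal probe brightness, or confirmed in later tests; inconclusive = above 50% with abnormal brightness, or retests that disagree; inactive = below 50% or failed in later tests; about a fifth of its hits are not listed in these tables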;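 also: calls also rest on retests at 20 µM and on dose response follow-up; controls were probe without protein and protein plus probe with vehicle; some compounds called inactive have numbers as strong as hits; many hits fall short of the cut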
# CSC inhib – blocks cancer stem cells; cancer stem cell-like cells viability, luminescence; inhibition, % at 7.5 µM; 1.1% of 300,000 active;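 active = mean at 75% or more and at least half the replicates too; inconclusive = mean and replicates disagree; tested in HMLE shEcad cells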;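 also: 0% = median of negative and 100% = median of positive control wells; the first replicate is given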
# Rce1 inhib – blocks yeast Ras-converting enzyme; yeast membranes, quenched prenylated peptide cleavage fluorescence; calls only; 0.27% of 290,000 active;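 active = fall in fluorescence gain of 50% or more versus controls, with final raw signal at or below 3038400; inconclusive = same 50% fall but final raw signal above 3038400; inactive = fall in fluorescence gain under 50%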;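 also: plate controls were neutral control wells for no effect and wells lacking membranes for full effect; tested at 10 µM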
# Target sequence (Q03530 whole entry, looked up): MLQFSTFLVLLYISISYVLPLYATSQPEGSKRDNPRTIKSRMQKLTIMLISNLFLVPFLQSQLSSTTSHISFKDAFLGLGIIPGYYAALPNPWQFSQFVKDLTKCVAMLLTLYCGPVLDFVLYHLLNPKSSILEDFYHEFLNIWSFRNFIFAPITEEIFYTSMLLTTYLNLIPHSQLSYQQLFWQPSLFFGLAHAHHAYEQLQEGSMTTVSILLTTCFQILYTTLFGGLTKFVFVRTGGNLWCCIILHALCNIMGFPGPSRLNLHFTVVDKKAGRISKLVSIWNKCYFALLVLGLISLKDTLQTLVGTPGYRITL
# MT1-MMP act inh – inhibitors of human MT1-MMP activation; P50281; HT1080 RFP-PRO-GFP cells, GFP/RFP ratio fluorescence, overnight; percent of plate control window, DMSO zero; GFP/RFP ratio change, % at 20 µM; 0.061% of 360,000 active; AID 651647;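 active = GFP/RFP ratio change of at least 30% with cell ATP level not reduced by more than half and red fluorescence within 50% of control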; also: strong numbers were not always called active
#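 Material – HT1080 RFP-PRO-GFP cells · Control set – DMSO wells and RFP-L50D-GFP cells · Incubation – overnight cell settling, then overnight compound exposure, 37 °C, 5% CO2 · Compound dosing – single-point 20 µM compound, 1% DMSO · Read-out – GFP/RFP fluorescence ratio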
# Yeast UUG start – alters start codon recognition fidelity in yeast; AID 602363; activity score, % at 18.7 µM; 0.13% of 350,000 active; S. cerevisiae UUG-firefly luciferase reporter, luminescence/redox ratio;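 active = replicate mean at a twofold rise or more, about +100% in these data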;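 also: firefly luciferase made from a UUG start codon reports start codon fidelity; reporter light over untreated wells divided by growth signal over untreated wells; some hits fall short of that in this replicate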
# eIF4H inh – inhibitors of RNA binding by human eIF4H | Q15056 | eIF4H fluorescence polarization binding assay | inhibition, % at 35 µM | 0.94% of 290,000 active | AID 2012;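 active = 50% or more with normal probe brightness, or confirmed in later tests; inconclusive = above 50% with abnormal brightness, or retests that disagree; inactive = below 50% or failed in later tests; about a fifth of its hits are not listed in these tables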;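 also: calls also rest on retests at 20 µM and on dose response follow-up; 0% = protein and probe with vehicle and 100% = probe without protein; strong numbers were not always called active; many hits fall short of the cut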
# Env fusion inh – inhibitors of HIV Env-mediated cell fusion | inhibition, % at 12.3 µM | AID 651610 | 1.1% of 360,000 active | HeLa-JRFL Env/CEM21 cell fusion, luciferase;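 active = mean replicate inhibition score of at least 50 and every replicate individually at or above 50; inconclusive = only one of the two criteria met; inactive = mean below 50 and not all replicates reaching 50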;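 also: 0% = plate neutral controls and 100% = maraviroc near 300 nM; one replicate is shown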
# eIF4H inh retest – further read-out of eIF4H inh, marked with its call; inhibition, %; compound at 20 µM; confirmation average;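 mean of two retest wells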
# PABP FP inh retest – second read-out of PABP FP inh, no call of its own (marks repeat the call); inhibition, %; compound at 20 µM; confirmation repeats;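 mean of two retest wells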
# MT1-MMP act inh RFP – recorded beside MT1-MMP act inh, whose call it bears; RFP signal change, %; measured here: RFP expression control read;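 0 = vehicle wells; hits needed this value within 50% of zero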
# An asterisk follows results filed as active; i = inactive; ? = inconclusive; . = no result given; & = joins results of further samples; [ ] = dose if it differs, or a comment. Not all compounds are listed; count on the stated rates, not on these rows.
SMILES,PABP FP inh,CSC inhib,Rce1 inhib,MT1-MMP act inh,MT1-MMP act inh RFP,Yeast UUG start,eIF4H inh,Env fusion inh,others
CC1(C)S/C(=N/N=C/c2cccs2)NC1=O,6,-5,i,1,2,-9,5,.,
NC(=O)NO,.,0,.,-2,3,-10,.,9,
CN(c1ccc(C(=O)N2CCOCC2)cc1)S(C)(=O)=O,-5,-16,i,-5,3,4,-5,.,
C=CCNc1sc(C(=O)C(C)(C)C)c(N)c1C#N,-4,6,i,2,0,-22,6,4,
COc1ccccc1-c1cn(S(=O)(=O)c2ccc(F)cc2)nc1N,13,4,i,-2,-25,-26,-1,.,
O=C(COC(=O)CCCN1C(=O)c2cccc3cccc(c23)C1=O)Nc1ccc(Cl)cc1,-2,-5,i,1,3,.,-9,7,
CCOCCCNS(=O)(=O)c1ccc2c(c1)CCN2C(=O)CC,29,-1,i,1,1,-16,-3,.,
COc1cccc(C(=O)Nc2ccc(NC(=O)C3CCCCC3C(=O)O)cc2)c1 (configuration not stated),-10,-13,i,-2,2,-4,0,9,
CC1CCN(Cc2c(C(=O)N/N=C/c3cccc(Cl)c3)nnn2-c2nonc2N)CC1,.,-1,i,-2,-2,-14,.,3,
Cc1ccc(CN(C)C(=O)CN2C(=O)NC3(CCCC3)C2=O)o1,.,0,.,9,3,-7,.,.,
O=C(NCCN1CCCC1)C1COc2ccccc2O1 (configuration not stated),5,-2,i,0,3,-16,-4,-2,
O=C1CN(C(=O)c2ccccc2)C(c2ccccc2)c2cc(F)ccc2N1 (configuration not stated),-4,-1,i,-8,-4,-1,2,11,
COc1ccc(N2C(=O)CN=C2Nc2nc(C)cc(C)n2)cc1OC,4,-4,.,0,5,3,0,-2,
COc1ccc(-n2c(C)cc(C(=O)CSc3nnc(-c4cccs4)o3)c2C)cc1,7,21,.,3,-17,-8,7,89*,
Cc1ccc(N(CC(=O)NC(C)(C)C)C(=O)CCC(=O)Nc2ccccn2)cc1,.,.,.,1,3,-30,.,-7,
C=CCC[C@@H](Cc1ccc(F)cc1)C(=O)OC[C@@H](Cc1c[nH]c2ccccc12)NC(=O)[C@H](CC=C)CC(=O)N[C@H](CO)Cc1ccccc1,.,.,.,-2,-6,-22,.,-2,
CCO[C@H]1OC(C(=O)N2CCN(Cc3ccc4c(c3)OCO4)CC2)=C[C@@H](c2ccc(C(F)(F)F)cc2)[C@@H]1CCCO,2,11,i,0,-9,5&-10,-1,12[16.7 µM],
O=C1CCCC(O)=C1Sc1cc(Cl)c(Cl)cc1Cl,.,-10,i,-4,-1,-9,.,18,
CCc1nc2sc3c(=O)n(N)cnc3c2c2c1COC(C)(C)C2,-2,-9,i,.,.,.,-3,.,
O/N=C(\c1ccc(Cl)cc1)c1cc2ccccc2o1,0,71,i,0,-3,-13,0,.,
CCOC(=O)C1(Cc2cccc(F)c2)CCN(C(=O)C2CCCO2)CC1 (configuration not stated),2,-7,.,1,0,-3,0,9,
CC(C)(C)C(=O)Nc1c2c(nn1-c1ccc(F)cc1)CSC2,4,-13,i,1,2,-24,5,-2,
COc1cc(O)c(NC(C)=O)c2nonc12,0,-4,i,4,12,-10,-1,.,
Cn1nnnc1SCC(=O)N1CCN(C(c2ccccc2)c2ccccc2)CC1,11,-16,i,-8,-9,-6,-9,.,
OC(c1ccc(Cl)c(F)c1)c1ncc(-c2ccccc2C(F)(F)F)[nH]1 (configuration not stated),.,.,.,12,-4,-18,.,-8,
Cc1ccc(N(C(=O)NC2CCCCC2)C2=NCCCCC2)cc1,-3,-15,i,1,2,.,-1,-22,
CCn1cc(CNC(=O)c2cc(COc3ccc(F)cc3F)on2)cn1,-2,11,i,2,-4,-2,-6,-3,
Cc1nn(C)cc1-c1csc(N)n1,-3,3,i,4,2,.,2,7,
CCSc1nnc(NC(=O)c2csc3c2CCC(C)C3)s1 (configuration not stated),2,-3,i,-5,-2,-3,-8,11,
COc1ccc(C2=NN(C(=O)CSC3=NN4CCCC(=O)N=C4S3)C(c3cccc(OC)c3OC)C2)cc1 (configuration not stated),0,-1,i,0,-4,-23,-10,-3,
CCCc1nc2ccccc2c(C(=O)OCC(=O)Nc2ccc(S(=O)(=O)N3CCOCC3)cc2)c1CC,4,91*,i,-11,-17,-7,5,-1,
COC(=O)c1ccccc1NC(=O)N1CCN(c2ccc(F)cc2)CC1,2,-3,i,-4,0,45,-9,-47,
CCOc1cc(/C=N/NC(=O)c2cccc(S(=O)(=O)N3CCCC3)c2)ccc1OCC(=O)N(C)C,.,-5,i,0,-3,-2,.,8,
CCN1/C(=C/c2cc[n+](CCCS(=O)(=O)[O-])c3ccccc23)Sc2ccccc21,7,10,i,-98,9,.,97*,9,eIF4H inh retest=93*;PABP FP inh retest=37
C[C@]12CC[C@@H]3c4ccc(O)cc4CC[C@H]3[C@@H]1CC[C@@H]2O,2,14,i,2,0,-4,-4,7,
CC(c1ccc(O)cc1)(c1ccc(O)cc1)c1ccc(CCBr)cc1,-1,-1,i,0,-6,-12,-4,11,
C#CCOCCOCCOCCNc1nc(N2CCN(C(=O)[C@H](CCCN=C(N)N)n3cc(C(N)[C@@H](C)CC)nn3)CC2)nc(N2CCN(C(=O)[C@H](CO)n3cc([C@@H](N)C(C)C)nn3)CC2)n1 (some centres not stated),.,.,.,3,7,14,.,-13,
Cc1ccc(CN2CCN(Cc3cn[nH]c3C3CCCCC3)CC2CCO)cc1 (configuration not stated),-7,-5,i,1,4,-13,1,-22,
COc1ccc(-c2nn(CCC(=O)O)cc2CCC(=O)O)cc1,-2,-4,i,1,6,-3,0,.,
CCc1nc2ccc(C(=O)N3CCN(c4cccc(OC)c4)CC3)cc2nc1CC,-3,46,i,0,3,4,-2,5,
Cc1ccc(C(=O)OCC(=O)N(C)C2CCS(=O)(=O)C2)cc1S(=O)(=O)N1CCOCC1 (configuration not stated),.,-8,i,2,1,-7,.,3,
CC1(C)CC(CCC(=O)Nc2ccccc2Cl)C(=O)O1 (configuration not stated),3,.,i,-2,-1,.,-1,.,
COc1ccc(CCN=C(N)NS(=O)(=O)c2ccc3ccccc3c2)cc1,2,-2,i,0,1,.,1,2,
CCN(CC)C(=O)N1CCN(Cc2ccc3c(c2)OCO3)CC1,6,0,i,5,6,-6,-3,24,
COC(=O)N/N=C/c1cc(Cl)cc(Cl)c1OCc1ccccc1F,57,-41,i,-7,-7,.,4,.,eIF4H inh retest=6;PABP FP inh retest=12
CC1CCN(c2ccc(/C=N/n3nnnc3N)cc2[N+](=O)[O-])CC1,-8,-9,i,9,-8,.,-5,-76,
Cc1ccc(/C(O)=C2\C(=O)C(=O)N(C)C2c2ccccc2)cc1 (configuration not stated),.,.,.,2,6,-13,.,15,
O=C(c1cc(Sc2cccc(Cl)c2)nc2ccccc12)N1CCN(c2ccccn2)CC1,0,26,i,-5,-4,-13,-8,25,
Cc1cccc(-c2cc3nc(C)cc(N4CC(C)CC(C)C4)n3n2)c1 (configuration not stated),4,?,.,-4,0,-3,-2,.,
Cc1[nH]nc(NNC(=O)c2ccccc2)c1[N+](=O)[O-],-4,4,i,1,4,-22,-12,-10,
O=C(C(c1ccccc1)C(O)c1ccccc1)N1CCOCC1 (configuration not stated),.,.,.,2,4,-7,.,-2,
O=C(NCCc1ccccc1)C1CC(c2ccccc2O)=NO1 (configuration not stated),0,-17,i,10,4,-25,-15,14,
COc1ccc(CC(=O)N[C@@H]2c3cc(OC)c(OC)cc3C[C@H]2OCc2ccccc2)cc1,.,.,.,6,6,-4,.,-1,
CN(C)c1ccc(NC(=O)Nc2ccc3c(c2)nnn3C)cc1,-2,2,i,2,1,-5,-3,-25,
CCOC(=O)N1CC(C)N(CC(O)CN2CCOCC2)CC1C (configuration not stated),.,.,.,2,4,-16,.,-1,
CC12CCC(=O)N1C(C(=O)Nc1ccccc1F)CS2 (configuration not stated),.,-5,i,4,4,-2,.,3,
O=C(N/C(=C/c1cccnc1)C(=O)N1CCCCCC1)c1ccccc1,10,-8,i,-1,-2,-10,5,10,
CC(C)c1ccc(/C=C/C(=O)Nc2ccc(CN3CCOCC3)cc2)cc1,-5,28,i,8,-7,-8,-11,-7,
O=c1[nH]c2ccc(Br)cc2o1,.,.,.,7,0,-15,.,1,
CCn1cnc2c1c(=O)n(Cc1ccc(C(=O)OC)cc1)c(=O)n2Cc1ccccc1,-6,-2,i,-2,1,-9,-1,6,

# (more compounds)
SMILES,PABP FP inh,CSC inhib,Rce1 inhib,MT1-MMP act inh,MT1-MMP act inh RFP,Yeast UUG start,eIF4H inh,Env fusion inh,others
CCCn1c(SCC(=O)NC(=O)NC(C)(C)C)n[nH]c1=O,4,-12,i,2,3,.,-5,11,
O=C(NC(=S)Nc1ccc2[nH]c(=O)[nH]c2c1)c1cc(Br)ccc1Cl,0,5,i,3,4,2,-7,2,
Cc1ccc(N2C(=O)/C(=C\c3ccco3)SC2=S)cc1,28*,6,i,-2,0,-15,77*,-62,eIF4H inh retest=62*;PABP FP inh retest=80*
CC(=O)Nc1ccc(S(=O)(=O)N2CCc3ccccc3C2)cc1,-6,4,.,-1,-2,-7,-6,-39,
COc1ccc(CNC(=O)c2ccccc2SCC(=O)NCc2ccco2)cc1,.,1,.,0,1,-14,.,.,
COc1ccc(C(=O)NCC(=O)N=Nc2c(O)n(Cc3ccccc3)c3ccccc23)cc1OC,-3,9,.,8,5,.,5,-4,
Cc1ccc(O)c(N=NC2=C(O)CC(C)(C)CC2=O)c1,-4,26,i,13,-3,-27,33,29,
CN(C)c1ccc(N=Nc2nc3ccccc3n2C)cc1,16,20,i,20,-4,-91,4,-305,
O=c1[nH]c(SCc2cccc(Cl)c2)nc2c1CCCC2,-5,.,.,2,-5,1,2,-21,
O=c1[nH]c(C2CCCN(S(=O)(=O)c3ccccc3F)C2)nc2c1nnn2Cc1ccccc1Cl (configuration not stated),1,-5,.,0,-4,-12,-6,-12,
CCOC(=O)Nc1oc2ccccc2c(=O)c1CN1CCOCC1,-2,15,i,6,4,-3,-1,.,
Cc1nc2cnccc2n1C,-13,9,i,-5,1,-12,11,5,
COc1ccc(Nc2nc3ccccc3nc2NS(=O)(=O)c2ccc(NC(C)=O)cc2)cc1,23,10,i,7,2,.,3,7,
Cn1c(=O)c2[nH]c(CN3CCN(Cc4ccccc4)CC3)nc2n(C)c1=O,-14,3,i,-1,3,.,-14,.,
O=C(COc1cccnc1[N+](=O)[O-])N1CCC(Cc2ccccc2)CC1,.,4,.,8,-2,8,.,7,
Cc1ccc2nc(Cl)c3nnnn3c2c1,13,?,i,-20,-16,-21,-3,.,
COc1ccc(NC2=C(C(C)=O)C(c3ccc(OC)c(OC)c3)C(C(C)=O)C(C)(O)C2)cc1 (configuration not stated),-4,-11,i,0,2,0,1,-9,
Cc1ccc(C)c(S(=O)(=O)N2CCN(C(C(=O)Nc3ccc(F)cc3)c3ccccc3)CC2)c1 (configuration not stated),-2,26,i,-5,-6,.,-13,-28,
O=C(c1ccc2[nH]c(=O)c(=O)[nH]c2c1)N1CCN(Cc2ccccc2)CC1,-2,-6,i,-2,3,-17,-2,-1,
CCNC(=O)C1CCCc2c1[nH]c1ccc(Cl)cc21 (configuration not stated),-2,-6,i,1,-1,.,-2,.,
Cc1cc(-c2ccc(C(C)C)c(S(=O)(=O)N3CC(=O)Nc4ccccc43)c2)on1,9,25,i,-2,-2,14,8,7,
